FGF22 binding: binders of human FGF22 protein, primary screen, FGF22 synaptogenesis inhibitor project, biophysical, thermal shift, single point; recombinant FGF22 thermal shift, SYPRO orange fluorescence; percent of sucrose octasulfate shift, DMSO zero; calls only at 9.99 µM; actives 1.5% (n = 340,000);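 active = melting point raised past a set limit in the mean and every replicate; inconclusive = no clear call; three in four hits are not shown here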
Target sequence (Q9HCT0 whole entry, looked up): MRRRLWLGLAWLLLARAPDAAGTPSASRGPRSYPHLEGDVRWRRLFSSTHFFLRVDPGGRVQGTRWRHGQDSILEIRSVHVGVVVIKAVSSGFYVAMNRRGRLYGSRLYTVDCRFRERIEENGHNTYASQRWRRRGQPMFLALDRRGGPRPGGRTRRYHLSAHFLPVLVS
T cruzi repl: inhibitors of intracellular T. cruzi growth, primary screen, luminescence, NIH3T3 host cells; T. cruzi beta-gal in NIH3T3, 90 h; inhibition, % (no concentration beside the values); actives 1.4% (n = 300,000); AID 1885, 2009;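 active = mean inhibition across valid replicates above about 55%, limit read from the data; inconclusive = mean below that limit but half or more replicates reach it; inactive = mean below it, under half of replicates reach it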;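 also: signal also drops with host cell toxicity which is not excluded here; 0% = plate median of DMSO wells and 100% = zero luminescence signal; higher percent means less beta-gal luminescence so fewer parasites; stock transfer was 50 nL into about 50 µL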
E coli growth: E. coli growth inhibition, primary screen, OD600; AID 1053175, 2014; Escherichia coli growth, 23 h; hits give low values; OD600 absorbance (no concentration beside the values); actives 0.21% (n = 330,000);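 active = OD600 absorbance below the run mean of sample wells minus 3.6 SD, in any replicate, cut at about 0.56 in these data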;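 also: stock transfer was 300 nL into about 60 µL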
MLL AF4-AF9 inh: inhibitors of AF4 peptide binding to AF9, primary screen, biochemical, AlphaScreen, biotin-AF4 peptide, FLAG-AF9, single point; Protein AF-9 (Homo sapiens), P42568; inhibition, % at 10 µM; actives 0.47% (n = 350,000);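 active = every replicate reaching a set inhibition limit, whatever the replicate mean, cut at about 25% in these data; inconclusive = mean inhibition reaches that limit but some replicates miss it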;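 also: 0% = plate neutral control median and 100% = total signal loss; the record names both 10 and 1 µM as test concentration; the first replicate is given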
Target sequence (P42568 whole entry, looked up): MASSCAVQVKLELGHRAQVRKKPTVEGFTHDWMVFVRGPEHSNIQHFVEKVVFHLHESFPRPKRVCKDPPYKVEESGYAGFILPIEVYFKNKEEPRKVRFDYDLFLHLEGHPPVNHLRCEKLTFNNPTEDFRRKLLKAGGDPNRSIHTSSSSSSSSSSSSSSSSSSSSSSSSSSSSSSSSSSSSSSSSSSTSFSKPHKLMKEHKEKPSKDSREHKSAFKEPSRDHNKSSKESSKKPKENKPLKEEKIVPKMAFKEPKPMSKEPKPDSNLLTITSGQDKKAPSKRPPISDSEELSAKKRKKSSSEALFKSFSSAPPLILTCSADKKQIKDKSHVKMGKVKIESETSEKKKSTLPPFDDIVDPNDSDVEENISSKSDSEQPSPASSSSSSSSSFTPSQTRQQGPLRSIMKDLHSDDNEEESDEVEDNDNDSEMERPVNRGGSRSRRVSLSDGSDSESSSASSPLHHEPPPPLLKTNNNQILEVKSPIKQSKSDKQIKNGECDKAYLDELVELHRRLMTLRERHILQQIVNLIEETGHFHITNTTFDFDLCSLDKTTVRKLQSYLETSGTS
UCH37 inh: inhibitors of human UCH37 deubiquitinase, primary screen, biochemical, Ub-AMC cleavage, fluorescence | actives 0.33% (n = 330,000) | purified proteasome/UCH37 | inhibition, % (test concentration not listed) | Ubiquitin carboxyl-terminal hydrolase isozyme L5 (Homo sapiens), Q9Y5K5;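 active = mean of two replicates above 20%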;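 also: 0% = compound-free wells with enzyme and 100% = wells lacking proteasome; stock transfer was 100 nL into about 20 µL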
Target sequence (Q9Y5K5 whole entry, looked up): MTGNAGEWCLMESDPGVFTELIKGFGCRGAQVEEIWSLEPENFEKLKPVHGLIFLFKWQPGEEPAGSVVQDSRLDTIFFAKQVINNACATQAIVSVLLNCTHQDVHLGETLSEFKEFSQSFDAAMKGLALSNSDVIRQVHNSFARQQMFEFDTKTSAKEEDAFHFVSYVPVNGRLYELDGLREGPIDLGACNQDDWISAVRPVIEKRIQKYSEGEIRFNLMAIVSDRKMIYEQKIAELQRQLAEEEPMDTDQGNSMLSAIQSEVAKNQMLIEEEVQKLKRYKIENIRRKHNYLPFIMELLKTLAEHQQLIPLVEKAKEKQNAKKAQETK
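Reagent: Ub-AMC substrate; assay system: Proteasome-associated human UCH37 deubiquitinase; controls: no-proteasome and no-compound wells; read-out: % inhibition of Ub-AMC cleavage fluorescence; timing: 30 min preincubation with enzyme, 25 min cleavage at room temperature; signal: AMC fluorescence from Ub-AMC cleavage, excitation 355 nm, emission 460 nm; buffer or medium: Tris-HCl pH 7.4 plus ovalbumin, ATP-MgCl2, DTT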
Beta cell apopt: inhibitors of cytokine-induced beta cell apoptosis, primary screen, luminescence; INS-1E cytokine-induced death, ATP luminescence, 48 h; percent of positive-control rescue, neutral wells zero; protection from apoptosis, % (no concentration beside the values); actives 0.8% (n = 300,000);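 active = all replicates at 75% or more, or half of them and the mean; inconclusive = half reach 75% but not the mean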;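 also: 0% = cytokine-treated negative control wells and 100% = positive control rescue; higher means more ATP so stronger rescue from cytokine killing; wells of about 40 µL received 100 nL stock; the first replicate is given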
rRNA inh HTS: reduced GFP signal of wild-type E. coli, primary screen, bacterial rRNA inhibitor project, GFP/RFP fluorescence, OD600, single point. E. coli WT GFP vs humanized-ribosome RFP mutants, 24 h; hits give low values; DMSO median 0, no signal -100. GFP signal change (wild-type ribosome), % (concentration not given with the values). actives 1.6% (n = 350,000). AID 720706, 2013;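 active = significant combined selectivity score with lowered wild-type GFP, culture density cut under 30%, mutant RFP and density less affected; inactive = any of these conditions unmet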; also: one replicate is shown; some compounds called inactive have numbers as strong as hits
A1 inh: caspase 3/7 activation in MEF A1-2A-BIM cells, primary screen, A1 inhibitor project, cell-based, luminescence, HTS. Caspase-Glo 3/7 luminescence, 3 h; percent of clofoctol response, vehicle zero. AID 2462, 2010. caspase activation, % (concentration not given with the values). actives 0.066% (n = 330,000);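 active = over half of replicate activation scores above 10%, or exactly half above 10 with the replicate mean above 10; inconclusive = replicate mean below 10 yet half the replicates above 10; inactive = over half of replicates below 10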;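 also: wells of about 30 µL received 50 nL stock; many hits fall short of the cut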
rRNA inh HTS OD600: recorded beside rRNA inh HTS, whose call it bears; OD600 change, %; measured here: OD600 growth;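 optical density of the mix in the first replicate; 0 = DMSO median and -100 = no signal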
rRNA inh HTS RFP: recorded beside rRNA inh HTS, whose call it bears; RFP signal change, %; measured here: RFP humanized mutant strains;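 first replicate; 0 = DMSO median and -100 = no signal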
* = called active by the depositor; i = inactive; ? = inconclusive; . = no result given; & = joins results of further samples. An excerpt, so the mix of outcomes need not match the whole.

No.	Compound	FGF22 binding	T cruzi repl	E coli growth	MLL AF4-AF9 inh	UCH37 inh	Beta cell apopt	rRNA inh HTS	rRNA inh HTS OD600	rRNA inh HTS RFP	A1 inh
1	CCOC(=O)c1c(C)[nH]c(C(=O)OCC(=O)NC2CCS(=O)(=O)C2)c1C (centres undefined)	.	-4	0.67	.	-0.2	-1	.	.	.	2.4
2	CCN(c1ccccc1C(=O)O)S(=O)(=O)c1cccc2nsnc12	i	-8	0.61	3.1	2.0	2	21	12	5.0	0.0
3	O=C(Nc1cccc(Cl)c1)C1C2C=CC3(O2)C1C(=O)N(CCCN1CCCCC1)C3C(=O)NC1CCCCC1 (centres undefined)	i	3	0.67	0.2	0.8	2	5	9	-0.8	0.9
4	CSc1ccccc1NC(=O)COC(=O)/C=C/c1ccco1	.	.	0.69	.	3.8	-3	-12	-13	2.1	-0.7
5	COC(=O)c1sc2ccccc2c1-n1cccc1C(=O)C(=O)Nc1ccc(OC)cc1	.	12	0.84	.	1.1	0	.	.	.	0.7
6	CC1CC(C)(C)NC(=S)N1CCCC(=O)N1CCN(c2ccccc2F)CC1 (centres undefined)	.	0	0.65	.	3.2	-9	.	.	.	0.0
7	Cc1oc(-c2ccccc2F)nc1CS(=O)(=O)CC(=O)N1CCN(Cc2ccccc2)CC1	i	5	0.77	0.7	1.6	-3	-2	-14	12	-0.7
8	Cn1c(=O)c2c(ncn2CC(=O)N/N=C/c2ccc(Br)s2)n(C)c1=O	i	-7	.	-6.1	.	2	.	.	.	0.0
9	CCOC(=O)c1ccccc1NC(=O)c1ccc2c(=O)n3c(nc2c1)CCCCC3	i	16	0.73	-3.6	0.4	5	0	1	1.4	-1.0
10	COc1ccc(NC(=O)c2cccc(S(=O)(=O)NCc3ccccc3)c2)cc1S(N)(=O)=O	i	.	0.7	-0.5	2.1	0	-10	-16	-1.7	-0.1
11	Cc1cc2nc3c(=O)n(CCc4ccccc4)c(=O)[nH]c3nc2cc1N	i	56*	0.69	-4.0	7.0	-2	.	.	.	-0.6
12	COc1cc2c(cc1OC)CN(C(=O)CN(C)S(=O)(=O)c1ccc(NC(C)=O)cc1)CC2	i	-4	0.7	-4.1	1.5	3	2	2	-4.6	1.3
13	O=C(C1=C[C@@H](C2CCCCC2)C[C@@H](OCCCCO)O1)N1CCN(Cc2ccccc2)CC1	i	30	.	-2.3&-0.7	4.2	3	-16	-21	4.2	-0.1
14	COCCCNC(=O)c1cccc(S(=O)(=O)N2CC3(C)CC2CC(C)(C)C3)c1 (centres undefined)	i	5	.	4.4	.	-5	-15	-20	1.4	?
15	COc1ccccc1NC(=O)NC1CCS(=O)(=O)C1 (centres undefined)	i	4	0.65	-1.4	0.5	-2	13	-2	-1.4	-0.5
16	O=C(O)CCCCCNC(=O)CCn1nnc2ccccc2c1=O	.	-4	0.64	.	1.5	.	.	.	.	0.4
17	COc1ccc(CCNC(=O)C2CCC(=O)N(C3CC3)C2)c(OC)c1 (centres undefined)	i	-13	0.72	1.8	1.5	-8	9	15	5.7	0.7
18	CCOc1ccc(OCCSc2nc3ccccc3[nH]2)cc1	i	-16	0.61	2.7&2.1	1.8	1	-28*	-2.2*	-2.4*	-0.5
19	COc1ccc(OC)c(S(=O)(=O)n2nc(-c3ccccc3)cc2N)c1	i	15	0.74	0.8	-1.9	-3	-7	-13	2.1	0.1
20	COc1ccc(SC[C@H](Cc2ccccc2)N2CCN(C)CCC2=O)cc1	i	4	.	-5.5	5.4	0	-2	-6	1.1	-0.3
21	CCCCN(C)C(=S)Nc1ccc2nc3n(c(=O)c2c1)CCCCC3	i	6	0.7	-1.8	-1.3	0	-1	7	-2.6	0.9
22	CC1C(=O)Nc2ccccc2N1C(=O)c1ccc(F)cc1 (centres undefined)	i	6	0.71	-1.4	3.2	8	5	5	2.0	-0.8
23	O=[N+]([O-])c1ccc(N2CCN(c3nc(-c4ccc(Cl)cc4)cs3)CC2)cc1	.	41	0.75	.	4.4	6	.	.	.	-0.1
24	C=CCn1c(Cc2ccc(OC)cc2)nnc1SCc1nc2ccccc2c(=O)[nH]1	.	12	0.69	-35	5.3	1	1	0	1.6	-0.4
25	CC(=O)Nc1sc2c(c1C(N)=O)CCC2	.	-9	0.72	.	-0.1	1	.	.	.	0.3
26	COc1ccccc1Nc1c([N+](=O)[O-])cncc1[N+](=O)[O-]	.	-10	0.66	6.0	8.0	1	11	11	-4.6	0.5
27	CC(C)(C)c1nc(NC(=O)Nc2ccccc2)sc1Br	i	57*	0.69	6.4	5.9	9	-54	-74	-21	-0.2
28	Cc1cccc(Nc2nnc(SCC(=O)NC3CCCc4ccccc43)s2)c1 (centres undefined)	i	-3	0.69	-9.2	5.6	3	17	7	3.9	0.1
29	O=C(Nc1cccc(Oc2c(F)c(F)c(F)c(F)c2F)c1)N1C[C@@H]2C[C@@H](C1)c1cccc(=O)n1C2	.	13	0.72	-1.5	2.6	-4	.	.	.	0.0
30	O=C(c1cc(F)ccc1F)C1CCCN(Cc2cccn2-c2ccccn2)C1 (centres undefined)	i	1	0.65	3.3	2.2	1	9	7	-0.8	0.0
31	COCCNC(=O)c1cn(C)c2ccc(S(=O)(=O)N(C)C3CCCCC3)cc2c1=O	i	.	0.71	2.9	7.2	-2	-13	-16	-2.4	1.2
32	COc1cc(OC)c(/C=N/NC(=O)COc2cccc3cccnc23)c(OC)c1	i	-7	.	-5.0	.	0	-4	-3	2.5	-0.4
33	NS(=O)(=O)c1ccc(CNC(=O)CCC2CCCCC2)cc1	.	-3	0.64	.	0.7	-1	.	.	.	-0.7
34	COCCC(=O)N1CCC(n2nccc2NC(=O)CCc2ccccc2)CC1	i	-8	.	-2.1	.	-5	7	4	-3.8	0.7
35	COCCn1c(=S)[nH]c2cc(C(=O)NCC3CCCO3)ccc2c1=O (centres undefined)	i	1	0.69	0.0	2.9	-6	4	3	-5.5	0.3
36	CCC(C)C(NC(=O)c1ccccc1NC(=O)c1ccco1)C(=O)NC1CCCCC1 (centres undefined)	.	10	0.69	.	-0.2	4	.	.	.	0.3
37	O=C(NC1CC1)c1cccc(S(=O)(=O)N2CCOCC2)c1	i	.	0.68	1.8	3.0	-2	14	9	2.6	0.3
38	CC1CCc2c(c3ccccc3n2C(=O)CCl)C1 (centres undefined)	i	18	0.7	4.0	5.8	-7	4	7	-1.5	0.0
39	COc1ccc(C2NC(=O)CCC2[N+](=O)[O-])cc1 (centres undefined)	i	1	0.64	-0.1	2.2	.	-13	-32	-0.4	0.3
40	CCCOC(=O)c1ccc(Oc2coc3c(CN(CC)CC)c(O)ccc3c2=O)cc1	i	8	0.71	2.7	i	-1	-7	-1	-2.0	-0.1
41	COc1ccc(Cc2noc(CN(C)CC(O)c3ccccc3)n2)cc1OC (centres undefined)	i	-15	0.69	-0.8	-0.1	-4	-2	-1	-1.1	0.6
42	COC(=O)CN(c1ccc(C(C)C)cc1)S(=O)(=O)c1c(C)[nH]c(=O)[nH]c1=O	i	3	0.73	-1.7	4.4	2	6	5	3.1	-0.5
43	C=CCn1c(=NC(=O)CC)n(C)c2ccccc21	i	-5	0.63	-0.8	0.0	9	12	3	-5.6	0.9
44	COc1ccc(CN2CCCN(C)CC2)c(OC)c1C	i	41	0.7	-7.3	3.2	-2	9	13	-2.0	0.3
45	COc1ccccc1C(=O)NC(=O)COC(=O)CNC(=O)c1ccccc1F	i	.	0.65	-1.3	0.6	0	9	13	-1.3	-0.4
46	CC(=O)Nc1cccc(NC(=O)C(=O)NCC(c2ccco2)N2CCc3ccccc32)c1 (centres undefined)	.	6	0.69	17	3.1	-4	-6	-16	1.2	0.2
47	O=C(O)C1CC(=O)N(CCOc2ccccc2)C1 (centres undefined)	.	-14	0.71	.	-0.3	-15	.	.	.	0.8
48	COc1ccc(NC(=O)CCN2C(=O)c3ccccc3S2(=O)=O)c(OC)c1	i	0	0.73	0.2	3.2	-2	6	6	-1.3	0.0
49	O=[N+]([O-])c1ccc(S(=O)(=O)NNC(=S)NCCc2ccccc2)cc1	i	-10	0.71	-4.7	0.7	-5	-12	5	-3.2	0.3
50	CC1(C)C(=O)OC(c2ccccc2)C2(CCCC2)C1=O (centres undefined)	.	-11	0.71	.	-0.7	-7	.	.	.	0.3
51	CCOC(=O)C1=NN(c2ccccc2C)C2=NC(C)=C(C(=O)OC)C(c3cccc(OC)c3)N12 (centres undefined)	.	-13	.	.	0.4	-2	.	.	.	0.7
52	CCNC(=O)NC1(C(=O)Nc2ccc3c(c2)OCCO3)CCCCC1	.	3	0.74	.	0.2	-2	.	.	.	0.5
53	CC1(C)C2CCC1(CS(=O)(=O)NCc1ccc(C(=O)O)cc1)C(=O)C2 (centres undefined)	.	-16	0.68	.	2.0	1	.	.	.	0.6
54	CCO[C@H]1OC(C(=O)Nc2ccccc2)=C[C@@H](C)[C@@H]1CCCO	i	-6	.	-2.1	-2.1	-7	2	11	3.7	0.2
55	CCCn1c(SCC(=O)Nc2nnc(C(C)C)s2)nc2c1c(=O)n(C)c(=O)n2C	.	-26	0.74	.	1.2	15	.	.	.	-0.4
56	COc1ccc(CCNC(=O)CSc2nc3sc(C(=O)O)c(C)c3c(=O)[nH]2)cc1OC	i	-18	0.69	-2.5	2.1	-5	13	6	-0.7	1.9

Looked up by structure from above, two records:
No.	Compound	FGF22 binding	T cruzi repl	E coli growth	MLL AF4-AF9 inh	UCH37 inh	Beta cell apopt	rRNA inh HTS	rRNA inh HTS OD600	rRNA inh HTS RFP	A1 inh
50	CC1(C)C(=O)OC(c2ccccc2)C2(CCCC2)C1=O (centres undefined)	.	-11	0.71	.	-0.7	-7	.	.	.	0.3
53	CC1(C)C2CCC1(CS(=O)(=O)NCc1ccc(C(=O)O)cc1)C(=O)C2 (centres undefined)	.	-16	0.68	.	2.0	1	.	.	.	0.6

(further entries)
No.	Compound	FGF22 binding	T cruzi repl	E coli growth	MLL AF4-AF9 inh	UCH37 inh	Beta cell apopt	rRNA inh HTS	rRNA inh HTS OD600	rRNA inh HTS RFP	A1 inh
57	CCOc1ccc(C(=O)NC(=S)Nc2ccccc2OC)cc1[N+](=O)[O-]	i	7	0.73	-5.2	4.1	2	9	6	-5.0	-0.5
58	COCCn1c(SCC(=O)Nc2cccc(C)n2)nnc1-c1ccco1	.	-1	0.7	-7.3	5.6	-12	14	12	0.9	-0.3
59	Cc1ccc(-c2cc(C(=O)Nc3ccccn3)c3ccccc3n2)o1	i	-7	0.67	-3.0	-151	-6	12	13	3.6	1.6
60	O=C(NCc1ccc2c(c1)OCO2)c1cc2ncc(Br)cn2n1	.	.	0.81	.	0.0	-3	.	.	.	-0.4

Screening results deposited in PubChem BioAssay by several laboratories.
